Screening data from PubChem BioAssay.
Mtb hypoxia inh = inhibitors of hypoxia-regulated fluorescent reporter in Mycobacterium tuberculosis; M. tuberculosis hypoxia-regulated fluorescent reporter, fluorescence; 300,000 compounds, 0.1% hits; fluorescence inhibition, % (concentration not given with the values);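 active means 35 to 45% if threefold the growth effect, above 45% if 1.5-fold the growth effect; inactive means the rest, general growth blockers included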;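 further: wells of about 50 µL received 100 nL stock; 0% = vehicle wells and 100% = reference inhibitor wells; whole bacteria with a GFP reporter of the hypoxia response; strong numbers were not always called active; many hits fall short of the cut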
PrP 5UTR inh = suppresses PrP 5' UTR mRNA reporter expression; cell-based PrP 5' UTR mRNA reporter, plate reader; inhibition, % (test concentration not listed); 340,000 compounds, 0.35% hits; AID 488862;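 active means every replicate at 50% or more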;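 further: 0 = median of the neutral control wells; tested in H4 reporter cells; numbers are from one replicate; inactives centre near -14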
BJeLR viability = BJeLR cell viability loss | BJeLR (HRASV12) viability, CellTiter-Glo ATP luminescence, 48 h; reference of the scale not given here | 300,000 compounds, 0.17% hits | AID 1554 | inhibition, % (concentration not given with the values);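 active means replicate mean above 50%; inconclusive means above 50% but judged a plate artefact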;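 further: 50 nL library stock added to about 25 µL; numbers are from one replicate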
Sa RN4220 lethal = kills Staphylococcus aureus RN4220; S. aureus RN4220 growth, OD600, 16 h; inhibition, % (concentration not given with the values); 330,000 compounds, 0.33% hits;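 active means z-score of -3 or lower and OD600 up to 0.18 on both plates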;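 further: plate controls were untreated cells for no effect and reference antibiotic for full effect; stock transfer was 100 nL into about 80 µL; one replicate is shown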
Sa ugtP lethal = compounds lethal to S. aureus RN4220 ugtP deletion mutant; 330,000 compounds, 0.54% hits; growth inhibition, % (concentration not given with the values); OD600 growth, 16 h; some inactives read as strong as hits; AID 1259309;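 active means z-score under -3 and OD600 up to 0.15 on both plates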;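 further: plate controls were untreated wells for no effect and antibiotic for full effect; wells of about 80 µL received 100 nL stock; the first replicate is given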
Autofluor counter = flagged as autofluorescent in microsphere protease counterscreen | fluorescence intensity (concentration not given with the values) | AID 624483 | compound autofluorescence counterscreen, microsphere flow cytometry; hits give high values | 360,000 compounds, 3.1% hits;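 active means at least 3 SD above the mean of all compounds, about 16000 in these data; inconclusive means too few beads counted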;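 further: 100 nL of 1 mM stock went into each well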
Mtb hypoxia inh growth = recorded beside Mtb hypoxia inh, whose call it bears; growth inhibition, %; measured here: M. tuberculosis growth (absorbance);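 0% = vehicle and 100% = reference antibiotic; read after six days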
* = called active by the depositor; ? = inconclusive; nt = no result given.

SMILES	Mtb hypoxia inh	Mtb hypoxia inh growth	PrP 5UTR inh	BJeLR viability	Sa RN4220 lethal	Sa ugtP lethal	Autofluor counter
CCN(C(=O)CSc1nnc(Nc2ccccc2)s1)C1CCS(=O)(=O)C1 (stereo not drawn)	16	12	-24	3	11	3	4576
O=C(Nc1ccccc1)N(C1=NCCC1)c1ccc(OC(F)F)cc1	11	9	-5	-6	4.0	7	2510
CC(OC(=O)c1ccc2c(c1)NC(=O)CS2)C(=O)c1ccc(F)cc1 (stereo not drawn)	9	17	-17	nt	2.8	1	3325
COc1cccc(/C=N/NC(=O)CN(C2=NS(=O)(=O)c3ccccc32)c2ccccc2)c1	nt	nt	-21	-4	nt	nt	2111
Cc1ccc(Nc2nc3ccccc3n3cnnc23)cc1C	4	-1	-22	1	-1.8	-10	3909
O=C(c1c(F)cccc1F)N1CCCC1	4	2	-8	0	-0.7	-2	4284
CCC(c1nnnn1CCOC)N(Cc1cc2c(C)cc(C)cc2[nH]c1=O)CC1CCCO1 (stereo not drawn)	-1	4	nt	3	3.2	8	8323
Cc1c(-c2ccccc2)sc(Br)c1C(=O)N1CCOCC1	nt	nt	-14	2	0.8	2	3826
O=S(=O)(Nc1nc2ccccc2nc1NCc1ccco1)c1cccs1	nt	nt	-11	1	49	-3	4782
CN(C)CCCCCNCCCNC(=O)C=NO	0	-4	nt	nt	1.7	7	nt
O=C(Oc1ccc(C(=S)N2CCOCC2)cc1)c1cccc([N+](=O)[O-])c1	-5	-5	-19	0	1.7	6	3662
COc1ccc(C(CC(=O)O)NC(=O)COc2cc(C)ccc2C)cc1OC (stereo not drawn)	6	2	-23	5	5.5	1	3226
CCOC(=O)NN=Cc1c(C)c(C(=O)c2ccc(F)cc2)n2ccccc12	10	5	nt	nt	6.9	0	nt
CC(=O)Nc1cccc(NC(=O)CSc2nc(=O)n3cccc(C)c3n2)c1	4	1	-18	19	3.7	6	?
C[n+]1cn(Cc2cc(Cl)ccc2OC(F)F)c2ccccc21	6	6	-24	-2	2.9	6	3982
O=C(O)CC(C(=O)N(c1ccccc1)c1ccccc1)N1CCOCC1 (stereo not drawn)	-6	-7	-14	-4	1.4	0	2514
COC(CC=CC(=O)C(C)OCc1ccccc1)OC (stereo not drawn)	13	2	nt	nt	4.8	-4	nt
COc1ccccc1CNC(=O)c1cnccn1	9	4	-22	0	0.5	6	17158*
CC(=O)c1cccc(OCc2cc(C(=O)N(C)CCc3cnn(C)c3)no2)c1	7	4	6	-2	1.4	8	3898
Cc1[nH]n(-c2ccc(Br)cc2)c(=O)c1C=NNC(=O)c1ccccc1	3	2	nt	nt	94*	97*	nt
Clc1ss/c(=N\c2ccccn2)c1Cl	nt	nt	-52	-4	nt	nt	2408
FC(F)(F)c1cc(N2CCOCC2)nc(-c2ccccc2)n1	12	7	-6	7	-0.7	19	2030
Cc1ccc2oc(-c3cccc(NC(=O)c4ccc(Br)o4)c3)nc2c1	2	5	-71	0	-14	-7	2498
CC(C)(O)C#Cc1ccc(CN2CCCC(CNC(=O)c3ccco3)C2)cc1 (stereo not drawn)	2	0	-5	-1	3.2	6	5891
Nc1ccc(O)c2c(=O)cc(-c3ccccc3Cl)oc12	7	7	-35	-4	6.0	-14	3934

Looked up above.
`O=C(Nc1ccccc1)N(C1=NCCC1)c1ccc(OC(F)F)cc1` in Autofluor counter = 2510
`C[n+]1cn(Cc2cc(Cl)ccc2OC(F)F)c2ccccc21` in Autofluor counter = 3982
`CN(C)CCCCCNCCCNC(=O)C=NO` in Sa ugtP lethal = 7
`Cc1c(-c2ccccc2)sc(Br)c1C(=O)N1CCOCC1` in Autofluor counter = 3826

(cont.)
SMILES	Mtb hypoxia inh	Mtb hypoxia inh growth	PrP 5UTR inh	BJeLR viability	Sa RN4220 lethal	Sa ugtP lethal	Autofluor counter
NC(=S)N/N=C/c1coc2ccc(O)cc2c1=O	nt	nt	-10	7	nt	nt	4116
Cc1ccc(NC(=O)NCc2nc3ccccc3n2C)cc1	0	-1	-8	-5	-5.5	3	4344
CCC(C)c1nc2c(c(N3CCC3=O)c1-c1ccccc1)CCCC2 (stereo not drawn)	14	10	-7	11	5.1	2	2987
Cc1cc(C)c2nc(-c3cccc(Cl)c3)c(C)c(C(=O)N3CCOCC3)c2c1	-15	-10	0	-1	5.8	6	4217
CC1=CC(=O)[C@H]2C(C)(C)CCC[C@]2(C)[C@@]1(O)CO	nt	nt	-5	-5	6.6	-2	5657
CCCC(=NNC(=O)CCC(=O)NCc1ccccc1)c1ccccc1	-11	-6	nt	nt	1.0	2	nt
N/C(Cc1ccc([N+](=O)[O-])cc1)=N\OC(=O)Cc1ccccc1	nt	nt	-23	-4	nt	nt	2106
COc1ccc(N2CC(C(=O)NCCc3ccc(Cl)cc3)CC2=O)cc1 (stereo not drawn)	3	2	-16	13	-2.2	14	5935
O=C(Nc1ccc2oc(-c3ccccc3)nc2c1)c1cc(-n2cnnc2)ccc1Cl	-7	0	-6	-1	17	14	4432
COC(=O)C1=NN[C@H](C(=O)OC(C)(C)C)[C@H]1c1ccccc1	10	4	-14	0	3.0	8	2451
COc1ccc(C(C[N+](=O)[O-])c2c(-c3ccccc3)cc3ccccn23)cc1OC (stereo not drawn)	15	15	-24	-13	18	-23	7282
CCOC(=O)C1CCN(c2cc(C)nc3cc(-c4cccc(F)c4)nn23)CC1	9	9	1	nt	1.7	-2	11815
O=C(CNC(=O)c1cccs1)OCC(=O)c1ccc([N+](=O)[O-])cc1	5	2	-44	-5	4.9	-3	3895
Cc1nnn(-c2nonc2N)c1C(=O)NNC(=O)c1ccc(Cl)c(Cl)c1	1	-3	-19	14	-0.4	-10	4493
CC(C)(C)c1csc(NC2=NS(=O)(=O)c3ccccc32)n1	-6	-7	-106	10	2.9	-10	9463
CCN1CCN(CCCNC(=O)C2CCN(c3nnc(-n4c(C)ccc4C)s3)CC2)CC1	nt	nt	-12	12	-3.8	3	6089
CC1CCC(NC(=O)CCn2ccc3cc(S(=O)(=O)N4CCCC4)ccc32)CC1 (stereo not drawn)	8	-3	1	-10	5.9	13	4504
Fc1cccc(CNc2ncnc3cc(Cl)ccc23)c1F	0	5	-29	-7	-8.6	-7	4429
CNC(=O)NC(=S)NC(=O)c1ccc(OC)cc1	9	4	-26	7	1.8	0	8576
Cc1cc(-c2ccccc2)nc2cc(C(=O)NCCCn3ccnc3)nn12	nt	nt	3	-4	-0.7	-1	2427
CC1(C)CC2CC(C)(CN2Cc2c(O)ccc3ccccc23)C1 (stereo not drawn)	12	0	-19	-13	3.8	1	2155
COc1ccc(CN(C)C(=O)COC(=O)c2ccc3c(c2)OCO3)cc1OC	4	12	-13	-6	1.5	0	2408
CCCCCC1(C)NC(=S)N(c2ccccc2)N1 (stereo not drawn)	5	0	-6	3	3.1	5	4760
Cc1ccc(S(=O)(=O)N2CCCCC2CCNC(=O)C(=O)NCc2cccnc2)cc1 (stereo not drawn)	1	10	-14	8	2.2	2	6039
CCOC(=O)C1=C(C)N=c2s/c(=C/c3cccc([N+](=O)[O-])c3O)c(=O)n2C1c1ccc(OC)cc1OC (stereo not drawn)	nt	nt	-8	7	nt	nt	4133

Full records, looked up by structure. Order of values: Mtb hypoxia inh | Mtb hypoxia inh growth | PrP 5UTR inh | BJeLR viability | Sa RN4220 lethal | Sa ugtP lethal | Autofluor counter
Results for `COc1ccc(CN(C)C(=O)COC(=O)c2ccc3c(c2)OCO3)cc1OC` = 4 | 12 | -13 | -6 | 1.5 | 0 | 2408
Results for `CCCCCC1(C)NC(=S)N(c2ccccc2)N1` (stereo not drawn) = 5 | 0 | -6 | 3 | 3.1 | 5 | 4760

6 compounds drawn at random from the list so far:
SMILES	Mtb hypoxia inh	Mtb hypoxia inh growth	PrP 5UTR inh	BJeLR viability	Sa RN4220 lethal	Sa ugtP lethal	Autofluor counter
Cc1cc(C)c2nc(-c3cccc(Cl)c3)c(C)c(C(=O)N3CCOCC3)c2c1	-15	-10	0	-1	5.8	6	4217
CNC(=O)NC(=S)NC(=O)c1ccc(OC)cc1	9	4	-26	7	1.8	0	8576
CCC(C)c1nc2c(c(N3CCC3=O)c1-c1ccccc1)CCCC2 (stereo not drawn)	14	10	-7	11	5.1	2	2987
CCN1CCN(CCCNC(=O)C2CCN(c3nnc(-n4c(C)ccc4C)s3)CC2)CC1	nt	nt	-12	12	-3.8	3	6089
NC(=S)N/N=C/c1coc2ccc(O)cc2c1=O	nt	nt	-10	7	nt	nt	4116
CCCCCC1(C)NC(=S)N(c2ccccc2)N1 (stereo not drawn)	5	0	-6	3	3.1	5	4760

(cont.)
SMILES	Mtb hypoxia inh	Mtb hypoxia inh growth	PrP 5UTR inh	BJeLR viability	Sa RN4220 lethal	Sa ugtP lethal	Autofluor counter
O=C(CSc1nc(-c2ccccc2)cc(C(F)(F)F)n1)c1cccc([N+](=O)[O-])c1	13	3	-24	-16	-0.5	11	2554
CCOC(=O)C1C2C=CC(CC2)N1c1ccccc1 (stereo not drawn)	-4	2	-9	18	4.4	0	4076
COc1cc(/C=N\Nc2nc3ccccc3[nH]2)cc(OC)c1OC	nt	nt	-11	5	nt	nt	3376
N#CCc1nc2c3c4c(sc3ncn2n1)CCCC4	4	-4	0	13	4.2	1	3050
Cn1cnc([N+](=O)[O-])c1S(=O)(=O)Oc1ccccc1	nt	nt	-20	nt	20	26	3738
COc1ccc(-c2c(C)n([O-])c3c([n+]2=O)CCCC3)cc1	3	4	-17	6	0.4	4	6235
CCOC(=O)C(=NCC1CCCO1)NNc1ccccc1Cl (stereo not drawn)	7	2	-16	6	0.4	2	4448
COc1cccc(NC(=O)NNC(=O)CN2C(=O)COc3ccccc32)c1	10	2	2	10	4.6	4	3198
O=C(CSc1nc2ccsc2c(=O)n1CC1CCC(C(=O)O)CC1)NCCc1ccc(Cl)cc1 (stereo not drawn)	9	2	-27	5	2.1	-7	5169
Cc1nc2c(C)cccc2cc1C(=O)NN=Cc1ccc(N(C)C)cc1	8	14	nt	nt	3.6	1	nt
CCN1CCN(C(=S)NC(=O)c2cccs2)CC1	-8	9	-14	-3	4.6	3	3743
Cc1cc(C)c(N2C(=O)CCCC2=O)c(Cl)c1	-9	-1	-13	7	-2.0	-4	3873
Oc1ccc(/C=N/N2CCOCC2)c(O)c1O	nt	nt	-29	-1	nt	nt	4600
O=C1CC[C@H](O)CCN1[C@H](CSc1ccccc1)Cc1ccccc1	nt	nt	-10	-4	nt	nt	3071
O=C(CCC(=O)Nc1ccc(Oc2ccccc2)cc1)NCCO	nt	nt	-14	7	1.6	-9	3902
COc1cc(C(=O)NCCC(C)C)c([N+](=O)[O-])cc1OC	-5	6	-22	1	-1.1	-1	11828
O=C(CN1C(=O)NC(Cc2ccccc2)C1=O)Nc1ccccc1OC(F)F (stereo not drawn)	-6	-11	1	10	5.6	9	4527
Cc1cccc(N2CCN(C(=O)C3CCN(c4ncnc5c4nc4n5CCCCC4)CC3)CC2C)c1 (stereo not drawn)	-8	2	8	9	1.4	1	5840

6 compounds from above with just Sa ugtP lethal:
Molecule	Sa ugtP lethal
Cn1cnc([N+](=O)[O-])c1S(=O)(=O)Oc1ccccc1	26
COc1ccc(-c2c(C)n([O-])c3c([n+]2=O)CCCC3)cc1	4
CCOC(=O)C(=NCC1CCCO1)NNc1ccccc1Cl (stereo not drawn)	2
COc1cccc(NC(=O)NNC(=O)CN2C(=O)COc3ccccc32)c1	4
O=C(CSc1nc2ccsc2c(=O)n1CC1CCC(C(=O)O)CC1)NCCc1ccc(Cl)cc1 (stereo not drawn)	-7
Cc1nc2c(C)cccc2cc1C(=O)NN=Cc1ccc(N(C)C)cc1	1
